Screening data deposited in PubChem BioAssay by several laboratories.
ALR H2O2 inh – inhibitors of human sulfhydryl oxidase ALR; P55789; purified ALR, DTT oxidation, H2O2 HRP-luminol luminescence; inhibition, % (no concentration beside the values); 290,000 tested, 3.8% active; AID 485317;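 active = mean and each replicate at 75% or more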;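 also: stock transfer was 7.5 nL into about 7.5 µL; 0% = neutral wells and 100% = wells with inactivated enzyme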
LANA-H2B inh – blocks KSHV LANA binding to histone H2A/H2B; Q9QR71; cell-free LANA-H2A/H2B peptide, fluorescence polarization; 320,000 tested, 0.6% active; inhibition, % (no concentration beside the values); in the data active = inhibition mostly above about 10%, no sharp cut-off; inactive = mostly below about 6.7%;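 also: stock transfer was 7.5 nL into about 10 µL; 0% = median of vehicle wells and 100% = median of positive control wells; one replicate is shown; the record names a cut of 25% in any replicate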
FGF22 binding – shifts melting point of recombinant human FGF22; Q9HCT0; recombinant FGF22 thermal shift, SYPRO orange fluorescence; percent of sucrose octasulfate shift, DMSO zero; calls only at 9.99 µM; 340,000 tested, 1.5% active; AID 651658;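 active = melting point raised past a set limit in the mean and every replicate; three in four hits are not shown here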
Target sequence (Q9HCT0 whole entry, looked up): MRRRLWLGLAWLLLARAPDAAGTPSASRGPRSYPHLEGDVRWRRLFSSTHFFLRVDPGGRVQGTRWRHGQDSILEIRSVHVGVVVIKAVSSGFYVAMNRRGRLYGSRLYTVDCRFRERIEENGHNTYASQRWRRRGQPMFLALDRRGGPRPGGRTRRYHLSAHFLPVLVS
UCH37 inh – human UCH37 deubiquitinating enzyme inhibition | Q9Y5K5 | purified proteasome/UCH37, Ub-AMC cleavage fluorescence | inhibition, % (concentration not given with the values) | 330,000 tested, 0.33% active | AID 588478;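 active = mean of two replicates above 20%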;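 also: 0% = compound-free wells with enzyme and 100% = wells lacking proteasome; stock transfer was 100 nL into about 20 µL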
Target sequence (Q9Y5K5 whole entry, looked up): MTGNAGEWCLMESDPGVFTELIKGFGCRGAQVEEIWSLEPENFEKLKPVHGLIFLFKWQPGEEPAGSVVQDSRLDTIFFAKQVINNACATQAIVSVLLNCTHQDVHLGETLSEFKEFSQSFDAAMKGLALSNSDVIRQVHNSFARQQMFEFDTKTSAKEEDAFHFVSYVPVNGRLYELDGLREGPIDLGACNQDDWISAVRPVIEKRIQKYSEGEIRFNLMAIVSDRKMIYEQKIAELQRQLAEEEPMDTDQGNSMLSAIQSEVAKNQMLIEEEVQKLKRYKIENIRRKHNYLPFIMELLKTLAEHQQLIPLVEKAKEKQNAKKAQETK
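Test system – human UCH37 enzyme supplied as purified proteasome complex · Incubation – 30 min preincubation with enzyme, 25 min cleavage at room temperature · Detection – AMC fluorescence from Ub-AMC cleavage, excitation 355 nm, emission 460 nm · Benchmarks – no-proteasome wells (full inhibition) and compound-free wells (no inhibition)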
E coli growth – inhibitors of Escherichia coli growth; OD600, 23 h; active compounds read low; 330,000 tested, 0.21% active; OD600 absorbance (no concentration beside the values);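 active = OD600 absorbance below the run mean of sample wells minus 3.6 SD, in any replicate, cut at about 0.56 in these data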;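 also: stock transfer was 300 nL into about 60 µL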
HNF4A DNA FP – change in binding of human HNF4 alpha to DNA. AID 1224865. P41235. 360,000 tested, 0.3% active. HNF4a-FITC DNA binding, fluorescence polarization, 1 h. activity change, % at 10 µM; in the data active = activity change above about 30%, passing the limit was not always enough;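 also: controls were the assay level and a saturating level of protein; the project sought stronger binding though the title names inhibitors; some compounds called inactive have numbers as strong as hits; positive values seem to mean higher polarization but the record does not say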
Target sequence (P41235 whole entry, looked up): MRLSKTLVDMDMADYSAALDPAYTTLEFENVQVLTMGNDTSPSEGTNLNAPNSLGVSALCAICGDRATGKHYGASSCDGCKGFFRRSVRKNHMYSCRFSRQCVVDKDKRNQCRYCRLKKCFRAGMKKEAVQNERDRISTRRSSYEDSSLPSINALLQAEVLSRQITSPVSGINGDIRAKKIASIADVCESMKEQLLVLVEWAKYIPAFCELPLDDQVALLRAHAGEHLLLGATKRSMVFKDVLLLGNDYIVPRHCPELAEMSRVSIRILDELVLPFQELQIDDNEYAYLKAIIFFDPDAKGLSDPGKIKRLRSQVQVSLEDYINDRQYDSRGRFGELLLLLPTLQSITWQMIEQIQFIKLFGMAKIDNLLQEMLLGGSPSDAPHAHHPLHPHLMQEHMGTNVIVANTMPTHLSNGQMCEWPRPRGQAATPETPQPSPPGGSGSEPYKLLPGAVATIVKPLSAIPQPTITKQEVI
B2AR ag – activates human beta-2 adrenergic receptor causing internalization; response, % (concentration not given with the values); P07550; Am2.2-beta2AR cells, FAP receptor internalization, flow cytometry; reference of the scale not given here; 340,000 tested, 0.43% active;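 active = response above a set limit, near 3 SD of response in nonfluorescent compounds, cut at about 42% in these data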;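 also: stock transfer was 100 nL into about 11 µL; a reference agonist was the positive control; negative values mostly stem from fluorescent compounds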
* = called active by the depositor; i = inactive; . = no result given. Not all compounds are listed; the hit share may differ from the screen's.

SMILES	ALR H2O2 inh	LANA-H2B inh	FGF22 binding	UCH37 inh	E coli growth	HNF4A DNA FP	B2AR ag
CC(=O)Nc1ccc(Oc2ccc3c(c2)C(=O)NC3=O)cc1	.	-4.1	i	1.1	0.626	0.5	-4.0
C[C@@H]1COC(=O)[C@@H](Cc2ccc(F)cc2)C/C=C\C[C@H](CC(=O)N(CCO)Cc2ccccc2)C(=O)N1	0.2	.	i	0.6	0.711	-1.1	-1.4
CC1(C(=O)N2CCC(CC3CC(c4cccc(Br)c4)=NO3)(C(=O)NCC3CCCCC3)CC2)CC1 (stereo unspecified)	12.9	-5.2	i	3.7	0.665	-5.3	11.2
COc1ccc(Br)cc1/C=N/n1c(-c2ccccc2)n[nH]c1=S	2.5	-5.0	i	.	.	4.3	-4.1
Cn1c(N)c(C(=O)c2cc(-c3ccccc3)nc3ccccc23)c(=O)n(C)c1=O	0.8	-4.2	.	1.2	0.829	-2.1	0.5
Cc1cc(C)cc(NC(=O)C(c2ccccc2)N2CCCC2)c1 (stereo unspecified)	-25.6	-0.3	.	2.5	0.692	0.3	2.3
Cc1ccc(S(=O)(=O)/C(C#N)=C/c2c(N3CCCCC3)nc3ccccn3c2=O)cc1	-1.7	5.8	i	1.7	0.655	1.2	-9.9
COc1ccccc1CNC(=O)CCCN1C(=O)COc2ccc(C)cc21	-7.6	-3.1	.	2.7	0.704	-1.0	8.2
CC(C)CNS(=O)(=O)c1ccc(CCC(=O)Nc2ccc3c(c2)OCO3)cc1	-2.2	-4.2	.	1.4	0.759	-0.5	16.8
N#Cc1c(F)cccc1NCc1cccnc1	-9.6	-3.4	i	-19.1	0.618	2.1	20.7
C/C(N)=C(/C#N)C(=O)COC(=O)Cc1coc2ccc3ccccc3c12	-146.7	-6.2	.	-20.8	0.689	8.5	-2.7
Cn1c(=O)cc(OCC(=O)NCCCN2CCN(c3cccc(Cl)c3)CC2)c2ccccc21	40.7	8.5	i	5.3	0.704	2.4	-1.6
CCOC(=O)CC(=O)CSc1nc2c(cc1C#N)CCCCC2	1.1	1.6	.	-87.9	0.737	1.5	-0.4
COC(=O)c1sccc1NC(=O)C12CC3CC(CC(C3)C1)C2	1.0	3.4	.	0.4	0.705	-3.1	-1.4
Cc1ccc([N+](=O)[O-])c(OCCN2CCC(Cc3ccccc3)CC2)c1	-40.4	3.6	i	4.5	0.63	0.9	-2.2
CCOC(=O)Cc1csc(NC(=O)CC)n1	-14.3	-0.5	.	0.0	0.654	4.3	6.0
COc1ccc(NC(=O)c2oc3ccccc3c2NC(=O)COc2ccccc2OC)c(OC)c1	1.1	-10.3	.	-256.6	0.793	5.2	-2.3
Cc1ccc(NC(=O)COC(=O)C2CCC2)cc1S(=O)(=O)N1CCOCC1	-0.1	1.7	i	4.6	0.709	-1.8	-1.7
CCOC(=O)CN(C(=O)COc1ccc2c(C)cc(=O)oc2c1)c1ccc(OCC)cc1	-17.4	4.6	i	3.0	0.701	0.3	-11.2
COC(=O)c1ccc(CNC(=O)Cn2cnc3c(OCc4ccccc4)ncnc32)cc1	.	1.8	i	2.8	0.721	-2.4	15.2
Cc1ccccc1-n1nnnc1SCCCC(=O)c1ccc(F)cc1	-0.3	0.2	i	2.6	0.621	-3.2	-14.5
Cc1csc(NC(=O)c2cccnc2)n1	-3.9	-0.4	i	2.0	0.645	-1.1	-7.5
CCCCN1CC(O)=C(c2nc3ccccc3s2)C1=N	-9.7	-0.6	.	-2.4	0.705	2.4	1.2
CN(C)S(=O)(=O)N1CCC(Cc2ccccc2)CC1	-1.1	2.7	.	-0.9	0.706	1.6	0.8
COc1cc(NC(=O)c2ccco2)c(C(=O)OCC(=O)Nc2ncc(Cl)cc2Cl)cc1OC	-3.9	6.0	.	-1.5	0.745	2.3	22.5

Whole records, quoted from the list.
Record of `COC(=O)c1ccc(CNC(=O)Cn2cnc3c(OCc4ccccc4)ncnc32)cc1` : ALR H2O2 inh: .; LANA-H2B inh: 1.8; FGF22 binding: i; UCH37 inh: 2.8; E coli growth: 0.721; HNF4A DNA FP: -2.4; B2AR ag: 15.2
Record of `CC(C)CNS(=O)(=O)c1ccc(CCC(=O)Nc2ccc3c(c2)OCO3)cc1` : ALR H2O2 inh: -2.2; LANA-H2B inh: -4.2; FGF22 binding: .; UCH37 inh: 1.4; E coli growth: 0.759; HNF4A DNA FP: -0.5; B2AR ag: 16.8

The list goes on:
SMILES	ALR H2O2 inh	LANA-H2B inh	FGF22 binding	UCH37 inh	E coli growth	HNF4A DNA FP	B2AR ag
CCN(CC)CCN(C(=O)Cn1nnc(-c2ccc(C)o2)n1)C(C(=O)NC(C)(C)C)c1cccs1 (stereo unspecified)	-17.6	-0.2	i	4.6	0.674	2.7	0.1
Cc1cc(/C=N/NC(=O)c2cccs2)c(C)n1-c1ccccc1	-1.3	1.2	.	.	.	-1.3	-3.4
O=C(CN1C(=O)NC2(CCCCCC2)C1=O)c1ccccc1	-0.2	-4.9	i	4.5	0.733	3.3	0.4
CCCc1cc(=O)oc2cc(O[C@@H]3O[C@H](CO)[C@@H](O)[C@H](O)[C@H]3O)ccc12	-9.1	-0.6	i	-8.5	0.668	1.7	1.9
Nc1cccc2c(=O)c3ccccc3[nH]c12	52.5	5.8	i	4.0	0.622	-3.7	0.7
Cc1ccc2c(c1)N(CC(=O)N1CCCC(C)C1)C(=O)CO2 (stereo unspecified)	-0.6	-4.0	i	4.7	0.702	5.3	-2.0
CCC(Sc1nc2ccccc2c(=O)n1CCN1CCOCC1)C(=O)NCc1cccnc1 (stereo unspecified)	0.1	3.2	.	5.5	0.7	0.5	-0.9
COCc1cc(=O)[nH]c(SCCS(=O)(=O)c2ccc(C)cc2)n1	-0.6	0.6	i	3.3	0.608	-3.4	3.1
Cc1ccccc1C(=O)NCCNC(=O)c1cnccn1	-8.5	2.8	i	1.2	0.704	4.2	8.6
O=C(NC1CCCC1)C(c1ccccc1)N(C(=O)c1ccco1)C1CCCC1 (stereo unspecified)	.	1.7	.	0.8	0.675	4.0	3.6
COc1ccc(/C=N/N2CCN(c3ccncc3S(=O)(=O)N3CCCCC3)CC2)cc1	-11.0	-1.7	.	.	.	5.8	-6.3
C(=N\NC1=Nc2cccc3cccc1c23)/c1ccccn1	.	.	i	.	.	54.4*	6.5
Nc1nc(SCc2nc(-c3ccccc3)no2)[nH]c(=O)c1-c1ccccc1	-0.2	-3.7	i	2.9	0.697	-0.2	2.5
CN(C)c1ccc(CN2CCCC(O)C2)cc1 (stereo unspecified)	97.1*	3.2	.	-0.8	0.718	0.4	-6.5
CC(=O)OC(C)(C)C1Cc2cc3ccc(=O)oc3cc2O1 (stereo unspecified)	-1.9	-2.0	i	-363.1	0.661	1.4	-4.2
CCCCCCc1ccc(N2C[C@H](CCCCC)[C@@H](CC(=O)NCc3ccccc3)C2=O)cc1	-1.9	3.7	i	3.1	.	3.3	0.7
Nc1ccc(Oc2ncccn2)c(Cl)c1	-7.6	-2.4	i	3.1	0.632	2.7	-5.0
CCCNC(=O)Nc1cc(S(=O)(=O)CC)ccc1O	2.5	7.4	i	-0.3	0.609	2.6	1.0
Cc1ccc2cc(CN(CCCN3CCOCC3)C(c3nnnn3Cc3ccco3)C(C)C)c(=O)[nH]c2c1C (stereo unspecified)	-24.9	1.0	.	-0.4	0.631	-2.9	-10.4
O=C(NC(Cc1c[nH]c2ccccc12)c1nnc2n1CCCCC2)c1ccccc1 (stereo unspecified)	-1.0	-1.0	.	1.9	0.728	-1.1	5.4
Cc1ccc(-c2nc(CN(Cc3cnn(C)c3)C(C)C)c(C)o2)o1	-13.2	-5.6	i	-16.7	0.714	2.0	2.7
Cc1cccc(OCCNC(=O)c2ncn[nH]2)c1	-2.9	0.8	i	5.7	0.71	2.6	7.2
COc1ccc(-n2cc(-c3ccc(C)cc3)[n+]3c2SCC3)cc1	1.3	-0.5	.	34.6*	0.647	-0.2	7.1
COc1ccc(N(CC(=O)Nc2cc(OC)cc(OC)c2)S(=O)(=O)c2c(C)n[nH]c2C)cc1	2.7	-1.1	i	-0.1	0.594	3.0	12.8
CN(CC(=O)Nc1cccc(F)c1)C(=O)C1CSC2(C)CCC(=O)N12 (stereo unspecified)	-6.4	6.3	i	3.9	0.649	4.9	0.4
Additional entries follow:
SMILES	ALR H2O2 inh	LANA-H2B inh	FGF22 binding	UCH37 inh	E coli growth	HNF4A DNA FP	B2AR ag
O=C(Nc1ccc2[nH]c(=O)[nH]c2c1)c1ccc(Br)o1	-17.6	6.1	i	-1.4	0.686	-1.0	-1.8
O=C(c1ccco1)N1CCN(Cc2cccc3ccccc23)CC1	0.7	-3.5	i	0.8	0.687	1.5	5.5
CN(C)CC1CCC/C(=C/c2ccc(Cl)cc2)C1=O (stereo unspecified)	.	.	i	.	.	-3.0	17.6
COc1ccc(C)cc1N(CC(=O)NC1CCCC1)C(=O)CCC(=O)Nc1cc(C)on1	7.1	-0.9	.	1.1	0.698	-2.4	2.7
c1ccc(CN(Cc2ccccc2)c2nn[nH]n2)cc1	-1.5	9.6	i	-0.9	0.664	1.8	-2.0
COc1ccc(CCNC(=O)C(=O)c2c(C)[nH]c3ccccc23)cc1	-1.7	-5.7	i	4.2	0.71	0.2	1.4
Cc1ccc2c(c1)N(CCCC(=O)NCC1COc3ccccc3O1)C(=O)CO2 (stereo unspecified)	-2.6	2.9	.	1.2	0.653	-0.1	1.6
COc1ccc(-c2cc(-c3ccc(OC)c(OC)c3)n[nH]2)c(O)c1	12.7	-2.0	.	2.9	0.642	1.0	3.9
CCCn1nc(C(=O)NNC(=O)CCCOc2ccc(OC)cc2)c2ccccc2c1=O	5.5	-0.9	i	5.6	0.685	-0.6	-7.2
O=C(O)C1C2CCC(O2)C1C(=O)Nc1ccc(F)cc1 (stereo unspecified)	-6.4	1.0	.	3.3	0.723	-1.8	6.5
O=C(COC(=O)Cc1ccc(F)cc1)Nc1ccc(Cl)cn1	-5.8	0.1	i	-0.5	0.675	6.5	.

Of the compounds above, these contain a halogen.
SMILES	ALR H2O2 inh	LANA-H2B inh	FGF22 binding	UCH37 inh	E coli growth	HNF4A DNA FP	B2AR ag
C[C@@H]1COC(=O)[C@@H](Cc2ccc(F)cc2)C/C=C\C[C@H](CC(=O)N(CCO)Cc2ccccc2)C(=O)N1	0.2	.	i	0.6	0.711	-1.1	-1.4
CC1(C(=O)N2CCC(CC3CC(c4cccc(Br)c4)=NO3)(C(=O)NCC3CCCCC3)CC2)CC1 (stereo unspecified)	12.9	-5.2	i	3.7	0.665	-5.3	11.2
COc1ccc(Br)cc1/C=N/n1c(-c2ccccc2)n[nH]c1=S	2.5	-5.0	i	.	.	4.3	-4.1
N#Cc1c(F)cccc1NCc1cccnc1	-9.6	-3.4	i	-19.1	0.618	2.1	20.7
Cn1c(=O)cc(OCC(=O)NCCCN2CCN(c3cccc(Cl)c3)CC2)c2ccccc21	40.7	8.5	i	5.3	0.704	2.4	-1.6
Cc1ccccc1-n1nnnc1SCCCC(=O)c1ccc(F)cc1	-0.3	0.2	i	2.6	0.621	-3.2	-14.5
COc1cc(NC(=O)c2ccco2)c(C(=O)OCC(=O)Nc2ncc(Cl)cc2Cl)cc1OC	-3.9	6.0	.	-1.5	0.745	2.3	22.5
Nc1ccc(Oc2ncccn2)c(Cl)c1	-7.6	-2.4	i	3.1	0.632	2.7	-5.0
CN(CC(=O)Nc1cccc(F)c1)C(=O)C1CSC2(C)CCC(=O)N12 (stereo unspecified)	-6.4	6.3	i	3.9	0.649	4.9	0.4
O=C(Nc1ccc2[nH]c(=O)[nH]c2c1)c1ccc(Br)o1	-17.6	6.1	i	-1.4	0.686	-1.0	-1.8
CN(C)CC1CCC/C(=C/c2ccc(Cl)cc2)C1=O (stereo unspecified)	.	.	i	.	.	-3.0	17.6
O=C(O)C1C2CCC(O2)C1C(=O)Nc1ccc(F)cc1 (stereo unspecified)	-6.4	1.0	.	3.3	0.723	-1.8	6.5
O=C(COC(=O)Cc1ccc(F)cc1)Nc1ccc(Cl)cn1	-5.8	0.1	i	-0.5	0.675	6.5	.
